Screens (PubChem BioAssay)
eIF4H inh: inhibitors of RNA binding by human eIF4H. eIF4H fluorescence polarization binding assay. inhibition, % at 35 µM. 0.94% of 290,000 active. AID 2012;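 active = 50% or more with normal probe brightness, or confirmed in later tests; inconclusive = above 50% with abnormal brightness, or retests that disagree; inactive = below 50% or failed in later tests; about a fifth of its hits are not listed in these tables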;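 note: calls also rest on retests at 20 µM and on dose response follow-up; 0% = protein and probe with vehicle and 100% = probe without protein; strong numbers were not always called active; many hits fall short of the cut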
UUG fidelity: modulators of start codon recognition fidelity in yeast; 0.13% of 350,000 active; S. cerevisiae UUG-firefly luciferase reporter, luminescence/redox ratio; activity score, % at 18.7 µM;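 active = replicate mean at a twofold rise or more, about +100% in these data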;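 note: firefly luciferase made from a UUG start codon reports start codon fidelity; reporter light over untreated wells divided by growth signal over untreated wells; some hits fall short of that in this replicate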
PABP polyA inh: blocks human PABP binding to poly(A) RNA; 1% of 290,000 active; AID 2014; P11940; fluorescence polarization; inhibition, % at 35 µM;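 active = 50% or more with normal probe brightness, or confirmed in later tests; inconclusive = above 50% with abnormal brightness, or retests that disagree; inactive = below 50% or failed in later tests; about a fifth of its hits are not listed in these tables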;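 note: calls also rest on retests at 20 µM and on dose response follow-up; controls were probe without protein and protein plus probe with vehicle; some compounds called inactive have numbers as strong as hits; many hits fall short of the cut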
Rce1 inh: inhibitors of yeast Ras-converting enzyme; Q03530; yeast membranes, quenched prenylated peptide cleavage fluorescence; calls only; 0.27% of 290,000 active;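 active = fall in fluorescence gain of 50% or more versus controls, with final raw signal at or below 3038400; inconclusive = same 50% fall but final raw signal above 3038400; inactive = fall in fluorescence gain under 50%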;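 note: plate controls were neutral control wells for no effect and wells lacking membranes for full effect; tested at 10 µM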
Target sequence (Q03530 whole entry, looked up): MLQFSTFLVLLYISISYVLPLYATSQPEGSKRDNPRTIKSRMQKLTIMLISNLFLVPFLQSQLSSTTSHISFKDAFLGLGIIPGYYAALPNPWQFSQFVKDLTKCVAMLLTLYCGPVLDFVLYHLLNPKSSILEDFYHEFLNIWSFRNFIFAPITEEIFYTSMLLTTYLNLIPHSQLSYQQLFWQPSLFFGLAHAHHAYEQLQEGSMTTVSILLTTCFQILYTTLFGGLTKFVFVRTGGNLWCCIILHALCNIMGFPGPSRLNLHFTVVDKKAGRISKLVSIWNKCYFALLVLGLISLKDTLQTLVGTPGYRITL
Env fusion inh: HIV envelope-mediated fusion inhibition; AID 651610; 1.1% of 360,000 active; HeLa-JRFL Env/CEM21 cell fusion, luciferase; inhibition, % at 12.3 µM;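 active = mean replicate inhibition score of at least 50 and every replicate individually at or above 50; inconclusive = only one of the two criteria met; inactive = mean below 50 and not all replicates reaching 50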;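 note: 0% = plate neutral controls and 100% = maraviroc near 300 nM; one replicate is shown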
CSC inhib: blocks cancer stem cells; cancer stem cell-like cells viability, luminescence; inhibition, % at 7.5 µM; 1.1% of 300,000 active; AID 2717;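 active = mean at 75% or more and at least half the replicates too; inconclusive = mean and replicates disagree; tested in HMLE shEcad cells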;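 note: 0% = median of negative and 100% = median of positive control wells; the first replicate is given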
MT1-MMP act inh: MT1-MMP (human) activation inhibition; 0.061% of 360,000 active; GFP/RFP ratio change, % at 20 µM; P50281; HT1080 RFP-PRO-GFP cells, GFP/RFP ratio fluorescence, overnight; percent of plate control window, DMSO zero;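 active = GFP/RFP ratio change of at least 30% with cell ATP level not reduced by more than half and red fluorescence within 50% of control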; note: strong numbers were not always called active
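Test system: HT1080 RFP-PRO-GFP cells; Benchmarks: DMSO and RFP-L50D-GFP cell wells; Timing: cells overnight before dosing, compound overnight, 37 °C, 5% CO2; Compound: one 20 µM compound dose with 1% DMSO; Read-out: GFP/RFP fluorescence ratio.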
eIF4H inh retest: recorded beside eIF4H inh, whose call it bears; inhibition, %; compound at 20 µM; confirmation average;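 mean of two retest wells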
PABP polyA inh retest: second read-out of PABP polyA inh, no call of its own (marks repeat the call); inhibition, %; compound at 20 µM; confirmation repeats;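 mean of two retest wells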
MT1-MMP act inh RFP: also measured in MT1-MMP act inh; calls as there; RFP signal change, %; measured here: RFP expression control read;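 0 = vehicle wells; hits needed this value within 50% of zero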
Numbers without * were called inactive; i = inactive; ? = inconclusive; . = no result given; & = joins results of further samples.

SMILES	eIF4H inh	UUG fidelity	PABP polyA inh	Rce1 inh	Env fusion inh	CSC inhib	MT1-MMP act inh	MT1-MMP act inh RFP	others
Cc1ccc(N2CC(C(=O)N3CCC(C(=O)Nc4nnc(C(C)(C)C)s4)CC3)CC2=O)cc1 (stereo not given)	84.3	9.5	0.6	i	23.2	.	-2.1	-2.4	eIF4H inh retest=-1.8;PABP polyA inh retest=5.7
Cc1c(Cl)ccc2sc(N3CCN(C(=O)C4=COCCO4)CC3)nc12	.	-10.5	.	i	.	2.2	-3.3	-4.3
CCn1ncc(C2=NOC(C(=O)Nc3ccccc3C(=O)OC)C2)c1C (stereo not given)	6.7	6.9	9.3	i	.	6.0	-9.7	-15.4
CCN(C(=O)CN1CCN(S(=O)(=O)c2cc(Cl)ccc2Cl)CC1)c1c(N)n(Cc2ccccc2)c(=O)[nH]c1=O	2.6	.	-5.0	i	-7.7	.	2.3	3.2
COc1cc(CN2CCC(C(=O)NC(c3ccc(F)cc3)c3ncccc3C)CC2)cc(OC)c1 (stereo not given)	.	-4.2	.	.	-7.3	.	1.3	6.8
CCN(CC(=O)Nc1cccc(S(=O)(=O)N2CCCC2)c1)CC(=O)Nc1ccccc1OC	-10.9	.	-12.3	i	6.3	-2.3	2.7	-7.9
O=C(Nc1nc(-c2ccccc2)c(C(=O)c2ccccc2)s1)c1ccc(S(=O)(=O)N2CCCCC2)cc1	-7.8	-2.4	-8.2	i	12.4	42.8	-20.0	-26.1
Cc1ccc(/C=N/Nc2ccnc3cc(Cl)ccc23)c(C)c1	-13.1	-13.6	11.6	i	20.9	.	-9.9	-21.3
COC(=O)c1ccc2c(=O)[nH]c(COC(=O)CCC(=O)c3ccc(Cl)cc3)nc2c1	.	-15.1	.	i	.	-8.7	2.2	-1.0
CCN(CC(=O)Nc1cc(Cl)ccc1C)C(=O)CCS(=O)(=O)c1ccc(Cl)cc1	-4.4	1.4	-6.9	.	?	4.4	3.6	0.2
Cn1c(=O)c2c(nc(N3CCCC3)n2C)n(C)c1=O	-2.6	-16.1	-2.3	i	-11.4	-14.9	-2.6	0.8
Cc1nc2nc(SCC(=O)NCCCN3CCOCC3)nn2c(C)c1Cc1ccccc1	4.5	-16.6	9.6	i	0.3	-11.5	-2.2	-0.4
Brc1ccc(/C=N/n2cnnc2)s1	-12.1	.	-8.4	i	-15.3	-5.2	0.6	-0.6
CCCCN(CCCC)CC1OCc2ccccc2CO1	-7.8	-12.8	-5.8	i	-14.7	.	1.4	2.7
COc1ccc(C(C#N)=C2C=CC(=NO)C=C2)cc1	-1.4	.	1.3	i	4.7	27.8	-5.0	-8.6

Not a retest: entries from further up.
SMILES	eIF4H inh	UUG fidelity	PABP polyA inh	Rce1 inh	Env fusion inh	CSC inhib	MT1-MMP act inh	MT1-MMP act inh RFP	others
Cc1ccc(N2CC(C(=O)N3CCC(C(=O)Nc4nnc(C(C)(C)C)s4)CC3)CC2=O)cc1 (stereo not given)	84.3	9.5	0.6	i	23.2	.	-2.1	-2.4	eIF4H inh retest=-1.8;PABP polyA inh retest=5.7
Cc1c(Cl)ccc2sc(N3CCN(C(=O)C4=COCCO4)CC3)nc12	.	-10.5	.	i	.	2.2	-3.3	-4.3

Following part.
SMILES	eIF4H inh	UUG fidelity	PABP polyA inh	Rce1 inh	Env fusion inh	CSC inhib	MT1-MMP act inh	MT1-MMP act inh RFP	others
O=C(Nc1ccc(C(=O)N2CCCC2)cc1)c1ccc(F)cc1Cl	4.0	7.9	-5.0	i	.	4.3	0.4	5.0
COC(=O)c1ccc2c(=O)n(CCN3CCOCC3)c(SCC(=O)Nc3ccc(OC)cc3OC)nc2c1	-3.0	-19.3	-14.4	i	-7.0	-14.9	-2.7	-5.5
O=S(=O)(N/N=C\c1cccn1-c1ccccc1)c1ccc2ccccc2c1	-2.1	-0.1	4.0	i	.	.	-0.7	1.6
O=C(OCC(=O)N1CCCC1=O)c1ncc(Cl)c(Cl)c1Cl	.	-16.0	.	i	-7.7	-0.5	-7.0	0.8
CCCCNC(=O)C1CCC(CNS(=O)(=O)c2ccc(C)cc2)CC1 (stereo not given)	1.3	.	16.0	i	-12.8	-11.0	0.5	-1.8
O=S(=O)(Nc1ccc(-c2cn3c(n2)SCC3)cc1)c1cccs1	-11.5	.	8.0	i	-5.1	.	1.9	2.5
CC(C)C(NC(=O)/C=C/c1cccc([N+](=O)[O-])c1)C(C)C	3.3	.	5.3	i	12.3	-1.5	-3.0	-1.6
CCCc1cc(-c2ccc3c(c2)COc2c4ccccc4nn2-3)on1	.	-30.1	.	i	-314.0	18.5	-1.0	-0.6
COc1ccc(C(=O)Nc2ccc(Cl)cc2C(=O)NCc2ccco2)cc1OC	-4.4	-14.4	-0.5	i	-30.5	-6.6	3.5	-10.0
COc1cc(CNC2CCCc3ccccc32)cc(OC)c1OC (stereo not given)	-0.7	6.5	8.4	i	-6.9	-14.9	2.7	3.8
CC1CC(C)CN(C(=O)CCNS(=O)(=O)c2cccs2)C1 (stereo not given)	-0.3	-28.5	8.8	i	.	-6.1	-4.2	1.8
FC(F)(F)c1ccccc1Cc1c(-c2cccc(Cl)c2)nc2ccc(Cl)cn12	.	-24.1	.	.	10.8	.	-5.0	-3.2
CN(C(=O)COC(=O)c1ccc([N+](=O)[O-])cc1)c1ccccc1	-3.5	.	?	.	6.5	-3.3	2.2	7.4
CC(C)C(=O)Nc1nc(-c2ccc3c(c2)CCN3C(=O)C2CC2)cs1	-2.8	-12.6	3.3	.	-9.6	2.0	4.0	0.4
Cn1c(Nn2cnnc2)nc2ccccc21	1.0	-15.5	-6.8	i	.	1.7	-2.2	-0.4
CN(Cc1ccccc1)C(=O)c1cccc(NC(=O)Cc2ccc(NC(=O)C3CCN(C(=O)c4ccccc4)CC3)cc2)c1	.	-2.3	.	.	9.5	.	-0.2	-7.8
CN1CCN(c2ncnc3c2ncn3[C@H]2CN(Cc3ccc(C(=O)O)cc3)C[C@@H](CO)O2)CC1	.	-13.8	.	.	-15.9	.	-4.9	3.5
Cn1cc(Br)c(-c2cccc(NC(=O)CC(C)(C)CC(=O)O)c2)n1	-2.2	.	-1.3	.	7.9	-5.4	1.0	0.1
COc1ccc(N2CCN(C(=O)c3ccccc3NS(=O)(=O)c3ccccc3)CC2)cc1	-3.5	6.5	-6.9	i	.	-7.1	-4.8	-2.7
CCCn1c(=O)c(C(=O)NCCc2ccccc2)c(O)c2ccccc21	-8.3	-11.1	3.6	i	7.4	38.4	2.4	0.9
O=C(O)/C=C/C(=O)Nc1ccc(SC(F)(F)C(F)(F)C(F)(F)F)cc1	2.9	.	4.1	i	5.0	33.9	-3.6	1.6
Cc1cc(C)nc(NC(=O)c2ccc(Cl)cc2[N+](=O)[O-])c1	-5.2	-30.1	-3.2	i	1.4	-4.0	-0.5	1.3
COCCCNC(=O)CCCOc1ccccc1	-3.5	-1.1	4.0	i	.	-10.9	3.5	1.9
CCOC(=O)C[C@H]1c2ccccc2S(=O)(=O)N1Cc1ccc(Cl)cc1	.	-14.2	.	i	8.7	-9.4	1.5	-13.6
COc1ccc(NS(=O)(=O)c2ccc(C)c(C(=O)N3CCN(Cc4cc(OC)ccc4OC)CC3)c2)cc1	.	-6.7	.	.	-5.1	.	1.1	-1.5
COc1ncnc2c1N=C1CC(C)(C)CC(N)=C1S2	?	-0.5	?	i	-16.8	.	-26.6	6.0
CN(C)c1cccc(C(=O)N/C=C/n2cnc3cc(C(F)(F)F)ccc32)c1	-4.9	.	4.3	i	21.5	-8.6	-3.1	-0.2
O=C(/C=C/c1ccccc1)NNC(=O)c1cccnc1	8.4	-8.1	0.0	i	13.5	13.5	4.6	7.0
O=C(Cc1ccccc1)NNC(=S)NC(=O)c1cccs1	3.9	-30.1	-0.1	i	10.7	11.2	1.9	-4.3
Cc1csc2nc(SCC(=O)N3CCN(c4ccccc4)CC3)[nH]c(=O)c12	-10.6	-20.9	0.0	i	19.1	-12.7	0.1	2.1
Cc1ccc(OCC(=O)Nc2ccc(N3CCN(S(C)(=O)=O)CC3)cc2)cc1C	-2.1	.	-5.7	i	-7.7	-10.2	4.4	1.3
NC(=O)C1CCN(C(=O)COc2cccc3cccnc23)CC1	-6.7	.	-10.1	i	15.7	-4.8	1.4	-2.3
COc1ccc(C(=O)NCc2cccnc2)cc1	-0.5	-12.4	-1.9	i	-55.1	-0.2	-8.9	1.7
CCC(=O)Nc1ccc(C(=O)n2nc(C)cc2C)cc1	-8.5	-8.6	1.1	i	.	-19.7	-0.8	1.4
CCOC(=O)c1c(NC(=O)C2C3C=CC(C3)C2(C)C(=O)O)sc2c1CCCC2 (stereo not given)	49.8	.	1.3	i	-1.9	1.0	1.3	4.8
Cc1cccc(OCc2nnc(SCC(=O)Nc3nccs3)o2)c1	-0.7	.	-9.0	i	6.6	-6.5	5.0	-0.7
CC(C)CN(c1ccccc1)S(=O)(=O)c1nnc(NC(=O)C(C)C)s1	-5.1	-6.8	-0.7	i	9.8	-14.0	-1.5	-1.5
CCOC(=O)Cn1c(C)[n+](CC(=O)c2ccccc2)c2ccccc21	-11.4	-5.6	0.6	i	-10.6	-14.1	0.9	1.1
COc1ccc(-c2cc(C(=O)NCCN3CCOCC3)c3cc(C(C)C)ccc3n2)cc1	.	-3.7	.	i	6.3	-1.7	1.4	2.8
COc1ccc(Cl)cc1S(=O)(=O)N(C)CC(=O)NCCCn1ccnc1	-14.7	0.2	0.6	i	-3.0	.	0.6	2.4
COc1cccc(/C=N/NC(=O)C(=O)N2CCCC2)c1	.	-10.2	.	.	.	-3.1	5.2	2.2
O=C(COC(=O)COc1ccccc1)NC1CCS(=O)(=O)C1 (stereo not given)	.	-7.6	.	.	-20.8	-21.5	-2.1	-4.2
CC(=O)Nc1ccc(S(=O)(=O)c2ccnc3cc(Cl)ccc23)cc1	.	-34.3	.	.	-2.1	.	6.1	-6.1
CCOc1ccc(NC(=O)COC(=O)C2CC2C)cc1 (stereo not given)	.	.	.	.	-38.1	21.1	0.7	0.5
COc1ccc(S(=O)(=O)N(C)CC(=O)NCCCn2ccnc2)cc1Cl	2.5	-9.5	-14.2	i	-1.5	.	1.5	4.3
Cc1ccc(C(=O)CC2(O)C(=O)N(Cc3ccccc3)c3ccccc32)o1 (stereo not given)	6.7	-5.6	0.4	i	.	3.4	3.2	0.9
CC1(C(=O)N2CCOCC2)CCCCC1	-6.5	-2.5	0.3	i	-33.5	.	-2.3	1.1
CC(C)OC(=O)CSc1nc2c(c(C3CC=CCC3)c1C#N)CCC2 (stereo not given)	-1.7	-12.2	-14.6	i	.	3.6	-3.6	-6.1
O=C(O)CC1S/C(=N/N=C2CCCCC2)N(c2ccccc2)C1=O (stereo not given)	0.6	-13.8	-11.6	i	.	-12.1	5.5	9.0
Cc1ccc(C2=NS(=O)(=O)N(C)C(C(=O)N(C)C3CCCCC3)=C2)cc1	-7.4	6.8	-11.9	i	1.4	11.7	3.4	2.5
CCOC(=O)N1CCN(c2cc3nccnc3cc2F)CC1	-6.2	.	-0.1	i	5.0	-6.0	0.6	-3.9
C[C@H]1CN([C@@H](C)CO)C(=O)CCCn2cc(nn2)CO[C@@H]1CN(C)C(=O)Nc1ccc2c(c1)OCO2	.	-6.7&-10.6	.	.	-6.5	.	1.4	6.0
COC(=O)C(Cc1c[nH]c2ccccc12)NC(=O)c1cccc(S(=O)(=O)N2CCCCC2)c1 (stereo not given)	.	5.6	.	.	.	-4.2	-1.4	3.1
CC(C)Oc1ccc(CCc2nnc(SC(C)C(=O)O)n2-c2ccccc2)cc1 (stereo not given)	-4.8	.	2.3	i	7.6	7.3	-0.4	0.2

Not all compounds are listed; count on the stated rates, not on these rows.
